miR-21 reporter = miR-21 reporter, rising signal; HeLa miR-21 FLuc reporter, luciferase, 48 h; Potency, µM (titrated, usually from 38.3 µM), for the others: at the top dose reporter change, positive = more light; 340,000 tested, under 10 active; AID 2288; active = well fitted rising curve with a large enough effect; inconclusive = small, poorly fitted or top-dose-only effect; inactive = no such curve, though single readings can be large or run the other way;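 also: % of control where 0% means no effect; miR-21 action dims this reporter so a rising signal means less miR-21 action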
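HeLa cells stably expressing CMV-driven firefly luciferase with a downstream miR-21 binding sequence, endogenously expressing miR-21, were treated with titrations (up to about 40uM final) for 48 hours at 37 degree Celsius. Luciferase luminescence was read after lysis.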
Rango dissoc inh = prevents RanGTP from dissociating the Rango-importin beta complex; AID 540253; Potency, µM (titrated, usually from 46.1 µM), without a hit: at the top dose activity change, negative = inhibition; 340,000 tested, 0.071% active; Biochemical FRET Rango-importin beta, RanGTP-induced dissociation; active means falling FRET ratio curve, often poorly fitted, with flat reads before Ran was added; inconclusive means other falling curves, or compound fluorescence or quenching; inactive means flat or rising ratio curve;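 also: potency is read from the fitted curve at half-maximal effect; % of control where 0% means no effect; nearly all actives have a fitted effect of over 45% in size; -100% = wells without RanGTP and RCC1; the record marks most hits as doubtful in a second field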
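Two FRET readings bracket the reaction: one 5 min after compound meets Rango–importin beta, another 45 min after RanGTP-RCC1 (0.6 uM Ran, 0.2 uM RCC1, 2 mM GTP) is added. Only the second defines inhibition.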
GLA inh pH 4.5 = inhibitors of human alpha-galactosidase A at pH 4.5; 230,000 tested, under 10 active; purified enzyme, 4-MU-alpha-Gal fluorescence, pH 4.5; activity change, negative = inhibition, % at 105 µM; P06280; AID 1467; inconclusive = small, poorly fitted or top-dose-only inhibition, or a rising curve; inactive = flat fitted curve, though single readings scatter; no compound was filed as active;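 also: 0% = full activity with enzyme and -100% = basal without enzyme; dose as in the result columns while the protocol names 77 µM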
Target sequence (P06280 whole entry, looked up): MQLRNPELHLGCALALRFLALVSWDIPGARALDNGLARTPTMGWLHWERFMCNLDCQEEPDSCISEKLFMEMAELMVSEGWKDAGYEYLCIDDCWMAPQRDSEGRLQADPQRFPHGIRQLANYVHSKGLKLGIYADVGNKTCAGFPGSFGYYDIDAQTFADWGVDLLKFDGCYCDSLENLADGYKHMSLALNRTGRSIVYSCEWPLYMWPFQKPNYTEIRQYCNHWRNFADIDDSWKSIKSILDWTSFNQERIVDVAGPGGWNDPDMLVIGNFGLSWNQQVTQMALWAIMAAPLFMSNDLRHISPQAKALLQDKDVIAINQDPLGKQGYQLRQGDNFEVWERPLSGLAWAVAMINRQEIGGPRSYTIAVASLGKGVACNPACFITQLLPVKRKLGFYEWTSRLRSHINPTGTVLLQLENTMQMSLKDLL
Rango complex inh = prevents formation of the Rango-importin beta complex; Potency, µM (series often up to 92.2 µM), without a hit: top-dose inhibition of complex formation; Rango CFP/YFP FRET sensor + importin beta, 45 min; Q14974; AID 540263; 340,000 tested, 0.031% active; active = rising FRET ratio curve, often small or poorly fitted; inconclusive = mostly compound fluorescence or quenching in the first reads; inactive = flat curves in all reads;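 also: potency is read from the fitted curve at half-maximal effect; 0% = DMSO wells and 100% = buffer wells lacking importin beta; nearly all actives have a fitted effect of over 15% in size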
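FRET biosensor Rango (snurportin 1 IBB between N-terminal EYFP and C-terminal Cerulean), 50 nM in PBS/1 mM DTT/0.02% Tween-20/0.1% BSA, preincubated 5 min RT with compound; 0.125 microM importin beta added, 45 min RT, CFP/YFP FRET ratio read.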
* hit, by the source's call; ? = inconclusive; · = no result given; & = joins results of further samples.

SMILES	miR-21 reporter	Rango dissoc inh	GLA inh pH 4.5	Rango complex inh
CC(NC1=CC(=O)c2cccnc2C1=O)C(O)c1ccccc1 (stereo unspecified)	·	-12%	·	-0.3%
S=C(NN=Cc1ccccn1)N(Cc1ccccn1)Cc1ccccn1	·	32%	·	-0.2%
O=C(Nc1ccc(C(=O)N2CCOCC2)cc1)C1CCCC1	·	-7%	·	-1.8%
CCOC(=O)c1c(-c2cccs2)csc1NC(=O)CN(CC)CC	-5%	-18%	-6	0.8%
CCOC(=O)CNc1nc(C(C)(C)C)nc2c1nnn2Cc1ccccc1	12%	1%	·	-3.4%
N=C1C(c2nc3ccccc3c(=O)[nH]2)=C(O)CN1c1ccccc1	4%	·	3	·
Cc1ccc(-c2nn(C)c(=O)c3ccccc23)cc1S(=O)(=O)N1CCCC1	0%	-3%	1	-2.3%
CCOC(=O)Cc1csc(NC(=O)CN2CCCCC2)n1	0%	6%	·	-3.2%
CCC(Oc1cc(Cl)ccc1Cl)C(=O)NNC(=O)CCC(=O)O (stereo unspecified)	-3%	-5%	6	-6.4%
C#CCOCCOCCOCCNc1nc(N2CCN(C(=O)[C@H](CCC(=O)O)n3cc(C(N)[C@H](C)CC)nn3)CC2)nc(N2CCN(C(=O)[C@H](CCC(=O)O)n3cc(C(N)[C@H](C)CC)nn3)CC2)n1 (stereo partly specified)	0%	10%	-3	6.4%
CS/C(N)=N/N=C/c1ccc2c(c1)OCO2	-56%	2%	-1	4.8%
Cc1cc(NC(=O)CSc2nnc(NC(=O)C3CC(=O)N(c4ccccc4)C3)s2)no1 (stereo unspecified)	-3%	1%	3	-1.5%
COc1cc(OC)c2ccc(=O)oc2c1	·	7%	?	1.1%
O=C(CCn1cnnn1)Nc1ccc(F)cc1	-43%&-59%	-1%	2	5.6%
CCCCN1CCCC1CNC(=O)c1cc(C#N)c2ccccc2c1OC (stereo unspecified)	6%	·	0	·
Cc1cc(C)n2c(SCCN3C(=O)c4ccccc4C3=O)nnc2n1	-12%	-15%	-12	-3.6%
NC1=NC[C@H](c2ccccc2)N1CCc1cc(C(F)(F)F)cc(C(F)(F)F)c1	?	1%	-2	0.3%
Cc1ccc(C)c(NC(=S)NNc2ccc(F)cc2F)c1	1%	7%	·	0.4%
CCc1ccc(C(=O)NCc2ccc(Cl)cc2Cl)cc1	-28%	-10%	-2	-0.2%
NS(=O)(=O)c1ccc(CCNC(=O)Cc2ccccc2[N+](=O)[O-])cc1	0%	-6%	2	-0.8%
COc1ccccc1-c1coc2cc(O)cc(O)c2c1=O	-53%	-5%	7	2.5%
C=CCN(C(=O)c1ccc2snnc2c1)c1ccccc1	-1%	-14%	·	0.0%
COCCn1c(SCC(N)=O)nnc1-c1c[nH]c2ccccc12	-8%	11%	0	1.4%
Cn1nc([N+](=O)[O-])nc1Oc1ccccc1F	1%	-6%	5	6.5%
Cc1cc(C)n(-c2nc(SCCN3CCOCC3)c3c4c(sc3n2)CCCC4)n1	·	-5%	·	0.9%
Continued:
SMILES	miR-21 reporter	Rango dissoc inh	GLA inh pH 4.5	Rango complex inh
CN(C(=O)NC1CCCCC1)c1ccccc1	-2%	7%	-18	-0.6%
Cc1sc(NC(=O)c2oc3ccccc3c2C)c(C#N)c1C	-10%	-11%	1	-1.2%
Cc1ccc(Cl)c2c1NC(=O)C2(O)CC(=O)c1ccccc1O (stereo unspecified)	0%	-6%	-7	-0.2%
Cc1cc(C)c(OCC(=O)NCCCn2nc(C)cc2C)c(C)c1	·	7%	·	5.4%
CCOc1ccc(OCc2ccc(C(=O)NC(C)(C)C)o2)cc1	-6%	12%	·	0.1%
O=C(Oc1ccc(N(C(=O)c2ccncc2)S(=O)(=O)c2ccc(Cl)cc2)cc1)c1ccncc1	0%	0%	-2	0.1%
CC1(c2cc(F)ccc2F)NC(=O)N(CC(=O)Nc2cccc(S(=O)(=O)N3CCCC3)c2)C1=O (stereo unspecified)	·	33%	·	-1.7%
C=CCN1C(=O)C(Cc2ccc(Br)cc2)S/C1=N\N=C\c1ccco1 (stereo unspecified)	-6%	17%	3	0.3%
Nc1nc(-c2ccc(Cl)cc2)nc(-c2ccc(Cl)cc2)n1	1%	1%	6	-4.8%
COc1ccccc1OCCNC(=O)c1ccccc1OCc1c(C)noc1C	·	5%	·	-2.0%
CC(C)c1cc(C(=O)N2CCCC(N3CCN(c4ccccc4F)CC3)C2)nc(N)n1 (stereo unspecified)	8%	17%	·	?
CCOCCn1c(SCC)nc2c1c(=O)[nH]c(=O)n2C	-6%	5%	-2	1.2%
O=C(Nc1ccc(NC(=O)c2cccs2)cc1)c1cccnc1	-11%	4%	8	-1.0%
Cc1ccc(C(=O)c2cnc3cc4c(cc3c2S(=O)(=O)c2ccccc2)OCCO4)cc1	-47%	-23%	3	?
O=C1CC(SCc2nc3ccccc3[nH]2)C(=O)N1c1cccc(Cl)c1 (stereo unspecified)	0%	?	1	?
COc1ccc(S(=O)(=O)NC(C)C(=O)Nc2ccccc2F)cc1 (stereo unspecified)	-3%	-19%	-11	-0.5%
Oc1oc(-c2ccccc2)nc1C=NCc1ccccc1	-52%	-12%	-8	-0.7%
Cc1ccc(S(=O)(=O)c2cccc(S(=O)(=O)N3CCCC3)c2)cc1S(=O)(=O)N1CCCC1	18%	1%	-19	3.4%
Cc1ccc(S(=O)(=O)N(CC(=O)Nc2cccc([N+](=O)[O-])c2)C2CCCCC2)cc1	6%	1%	-1	0.1%
CC(C)(C)OC(=O)N1CCC(CC2CC(c3ccc(Cl)cc3)=NO2)(C(=O)NCC2CCCCC2)CC1 (stereo unspecified)	-28%	0%	·	0.0%
NC(=O)COc1ncnc2scc(-c3ccc(F)cc3)c12	0%	3%	1	-3.7%
CC(C)(C)n1ncc2c(=O)n(CC(=O)N3CCCCC3)cnc21	-25%	15%	0	-3.3%
FC(F)(F)c1ccc2c(c1)[nH]c(=S)n2C1CC1	0%	18%	-5	?
CCCN(C1CCS(=O)(=O)C1)S(=O)(=O)c1ccc2ccccc2c1 (stereo unspecified)	·	2%	·	?
O=C(O)CC1(CC(=O)NCc2ccncc2)CCCCC1	-2%	-5%	3	-0.8%
Further entries follow.
SMILES	miR-21 reporter	Rango dissoc inh	GLA inh pH 4.5	Rango complex inh
CCC1(c2ccc(F)cc2)NC(=O)N(CC(=O)Nc2ccc(C(N)=O)cc2)C1=O (stereo unspecified)	2%	6%	·	0.8%
Cc1ccc(S(=O)(=O)N(C)C)cc1NC(=O)COC(=O)/C=C/c1ccc(F)cc1	·	-3%	·	1.9%
COc1ccccc1N1CCN(C(=O)c2cccc(S(=O)(=O)Nc3ccccc3F)c2)CC1	·	1%	·	1.7%
O=C(Nc1ccon1)c1cc(-c2ccccc2)nc2ccccc12	-1%	26%	-2	0.5%
Cc1cccc(C(=O)Oc2cc(C)[nH]c(=O)c2[N+](=O)[O-])c1	6%	7%	·	1.5%
CCc1ccc(OC(C)C(=O)N(Cc2ccccc2)C2CCS(=O)(=O)C2)cc1 (stereo unspecified)	-3%	2%	·	-2.5%
CCCSc1nnc(NC(=O)c2ccco2)s1	-55%	8%	4	2.1%
CN(Cc1cccnc1)C(=O)CCCc1c[nH]c2ccccc12	0%	0%	·	-1.5%
CCC(C)(C)n1nnnc1C(c1cc2cc(OC)ccc2[nH]c1=O)N1CCc2ccccc21 (stereo unspecified)	0%	-11%	-9	-0.5%
Cc1ccc(C(=O)N/C(=C\c2ccco2)C(=O)NCCN2CCOCC2)cc1	0%	13%	·	3.1%
O=C(Nc1cccc(S(=O)(=O)N2CCOCC2)c1)C(c1ccccc1)N1CCCCC1 (stereo unspecified)	-4%	-12%	-8	4.4%
O=C(C[n+]1cnn(CC(=O)c2ccc(Cl)cc2Cl)c1)c1ccc([N+](=O)[O-])cc1	-7%	-8%	-4	-0.7%
O=C(CCn1c(=S)[nH]c2ccccc2c1=O)N1CCOCC1	-3%	4%	-1	-0.7%
CC(=O)OCC(=O)C1(O)CCC2C3CCC4=CC(=O)C=CC4(C)C3C(=O)CC21C (stereo unspecified)	·	-7%	·	6.0%
O=C1CN2C(=N1)N(Cc1ccccc1)c1ccccc12	-3%	13%	4	0.1%
Cc1cc(C(=O)Nc2nc(-c3ccccn3)cs2)ccc1[N+](=O)[O-]	23%	23%	5	-1.8%
C=CCN1CCN(C(c2cc(OC)ccc2OC)c2nnnn2CC2CCCO2)CC1 (stereo unspecified)	-3%	18%	11	0.5%
O=C(N/N=C/C1CC=CCC1)c1ccc(O)cc1O (stereo unspecified)	-17%	2%	0	-2.3%
O=c1[nH]c(=O)n(CCc2ccc(F)cc2)c(O)c1C=NCc1ccc2c(c1)OCO2	-2%	-1%	4	-0.5%
O=C1N(c2ccccc2C(F)(F)F)O[C@@]1(c1ccccc1)C1CCCCC1	·	7%	·	-1.5%
Cc1c(C=O)c(=O)n(-c2ccccc2)n1C	2%	-6%	-6	-1.3%
Cc1ccc2[nH]c3c(NCCCN4CCCC4=O)ncnc3c2c1	-36%	-10%	6	-5.8%
COCCN=C1NN=C(c2cc(C)n(CC3CCCO3)c2C)CS1 (stereo unspecified)	-10%	-3%	0	0.8%
COc1ccc(CC(=O)NNC(=O)COc2ccc(Cl)cc2C)cc1S(=O)(=O)N1CCOCC1	·	15%	·	?
S=C(NCc1ccc(Cl)cc1)NN1CCOCC1	0%	-4%	-17	-5.9%

Among those listed so far, 5 contain a furan ring, fused or not.
SMILES	miR-21 reporter	Rango dissoc inh	GLA inh pH 4.5	Rango complex inh
Cc1sc(NC(=O)c2oc3ccccc3c2C)c(C#N)c1C	-10%	-11%	1	-1.2%
CCOc1ccc(OCc2ccc(C(=O)NC(C)(C)C)o2)cc1	-6%	12%	·	0.1%
C=CCN1C(=O)C(Cc2ccc(Br)cc2)S/C1=N\N=C\c1ccco1 (stereo unspecified)	-6%	17%	3	0.3%
CCCSc1nnc(NC(=O)c2ccco2)s1	-55%	8%	4	2.1%
Cc1ccc(C(=O)N/C(=C\c2ccco2)C(=O)NCCN2CCOCC2)cc1	0%	13%	·	3.1%

Rewritten with values under each structure: 4 of the compounds above
Every second line gives: miR-21 reporter | Rango dissoc inh | GLA inh pH 4.5 | Rango complex inh
O=C(N/N=C/C1CC=CCC1)c1ccc(O)cc1O (stereo unspecified)
→ -17% | 2% | 0 | -2.3%
O=c1[nH]c(=O)n(CCc2ccc(F)cc2)c(O)c1C=NCc1ccc2c(c1)OCO2
→ -2% | -1% | 4 | -0.5%
O=C1N(c2ccccc2C(F)(F)F)O[C@@]1(c1ccccc1)C1CCCCC1
→ · | 7% | · | -1.5%
Cc1c(C=O)c(=O)n(-c2ccccc2)n1C
→ 2% | -6% | -6 | -1.3%

The list continues:
SMILES	miR-21 reporter	Rango dissoc inh	GLA inh pH 4.5	Rango complex inh
Cc1c(C2Nc3ccccc3NC3=C2C(=O)CC(C)(C)C3)cnn1C (stereo unspecified)	-9%	?	-1	?
CCOC(=O)c1sc(NC(=S)NC(=O)c2cccc(Cl)c2)c(C(=O)OCC)c1C	0%	0%	-4	2.5%
O=C(c1ccco1)N1CCN(c2c([N+](=O)[O-])nn(-c3ccc(Cl)cc3)[n+]2[O-])CC1	-2%	-4%	-3	0.0%
CCOC(=O)/C=C1\Nc2ccccc2SC1=O	0%	15%	-7	-1.3%
COc1cc(CCCN[C@H](CN)Cc2ccccc2)cc(OC)c1OC	·	0%	·	4.3%
COc1ccc(CCNC(=O)CNC(=O)c2ccco2)cc1	0%	1%	·	3.1%
COc1ccccc1NC(=O)CCCN1C(=O)C2CC=CCC2C1=O (stereo unspecified)	-3%	-17%	·	-2.2%
Cc1cc(NC(=O)CSc2nc(-c3ccco3)cc(C(F)(F)F)n2)n(-c2ccccc2)n1	14%	-8%	2	0.4%
CC(=O)N1CCc2cc(C(=O)CN3CCN(c4ccccc4F)CC3)ccc21	-16%	1%	-5	3.0%
COc1cc(NC(=S)N2CCN(S(C)(=O)=O)CC2)cc(OC)c1	-2%	-12%	·	-3.2%

A portion of the library; the hit share may differ from the screen's.
